Marburg entry inh = Marburg virus entry inhibition; Marburg virus pseudotyped entry inhibition, cell reporter; control for the full effect not named in the record; about a third of the inactives were read at about 46 µM; 1.8% of 300,000 active; Potency, µM (doses to about 37.8 µM), for inactives: at the top dose activity change, negative = inhibition, actives largely listed as inhibitors; active = well fitted inhibition curve with a large enough effect; inconclusive = small, poorly fitted or top-dose-only effect, or effect the other way; inactive = flat fitted curve, though single readings scatter; tested in HEK293 cells; about a fifth of its hits are not listed in these tables; further: on the % scale 0 is the no-effect control and ±100 the full control effect; luciferase read-out
SARS PLP yeast = inhibitors of SARS-CoV papain-like protease in yeast | AID 485353 | S. cerevisiae expressing SARS-CoV PLpro, growth rescue; control for the full effect not named in the record | 0.19% of 330,000 active | Potency, µM (doses to about 32.9 µM), for the others: at the top dose activity, positive = growth rescue; active means well fitted rising curve with a large enough effect; inconclusive means small, poorly fitted or top-dose-only effect; inactive means no such curve, though single readings can be large or run the other way; further: 0% is about no effect; nearly all actives have a fitted effect of over 55% in size; growth read by luminescence after 48 h
Cruzain inh noDet = blocks cruzain activity in detergent-free assay. P25779. purified cruzain, Z-FR-AMC fluorescence, no detergent. Potency, µM, for the others: max response, negative = inhibition, hits mostly inhibitors. 2.3% of 200,000 active. AID 1476;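 further: plate controls were enzyme without inhibitor for no effect and buffer without enzyme for full effect; nearly all actives have a fitted effect of over 40% in size; top concentration of the series not given in the record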
Target sequence (P25779 123-467 limits assumed): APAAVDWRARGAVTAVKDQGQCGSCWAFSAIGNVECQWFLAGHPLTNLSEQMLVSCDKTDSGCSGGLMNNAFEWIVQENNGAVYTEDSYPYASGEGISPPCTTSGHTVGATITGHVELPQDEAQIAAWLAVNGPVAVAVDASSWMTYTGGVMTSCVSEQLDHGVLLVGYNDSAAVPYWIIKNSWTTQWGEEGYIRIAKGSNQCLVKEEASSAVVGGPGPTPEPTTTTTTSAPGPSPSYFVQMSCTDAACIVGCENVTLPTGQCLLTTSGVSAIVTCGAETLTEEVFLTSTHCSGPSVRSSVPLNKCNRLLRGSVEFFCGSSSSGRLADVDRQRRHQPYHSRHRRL
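Purified cruzain at 1.5 nM, pre-incubated 15 min with compound at room temperature in 100 mM sodium acetate pH 5.5, 5 mM DTT, 0.00005% Triton X-100. Reaction started with 2 uM Z-FR-AMC; AMC fluorescence increase over 60 s gives rate.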
Lassa entry inh = blocks Lassa virus binding to or entry into cells; Lassa virus pseudotype entry inhibition, cell reporter; control for the full effect not named in the record; Potency, µM (top dose mostly 37.9 µM), inactives show at the top dose activity change, negative = inhibition, actives largely listed as inhibitors; 1.2% of 300,000 active; active means well fitted inhibition curve with a large enough effect; inconclusive means small, poorly fitted or top-dose-only effect, or effect the other way; inactive means flat fitted curve, though single readings scatter; tested in HEK293 cells; further: on the % scale 0 is the no-effect control and ±100 the full control effect; nearly all actives have a fitted effect of over 50% in size; luciferase read-out
2A StopGo = FMDV 2A StopGo reporter, luciferase signal; 1.2% of 410,000 active; AID 1159524; human cells with a luciferase reporter of 2A StopGo recoding; control for the full effect not named in the record; Potency, µM (highest dose often 57.9 µM), without a hit: at the top dose signal change, negative = less light; active = well fitted falling curve with a large enough effect; inconclusive = small, poorly fitted or top-dose-only effect; inactive = no such curve, though single readings can be large or run the other way; tested in HEK293T cells; further: on the % scale 0 is the no-effect control and ±100 the full control effect; nearly all actives have a fitted effect of over 45% in size; luciferase light after 4 h
Cruzain Triton = cruzain (T. cruzi) inhibition with detergent. P25779. purified cruzain, Z-FR-AMC fluorescence, 0.01% Triton. Potency, µM, for inactives: max response, negative = inhibition, usual class: inhibitors. 0.43% of 200,000 active. AID 1478;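 further: plate controls were neutral wells for no effect and buffer without enzyme for full effect; nearly all actives have a fitted effect of over 40% in size; top concentration of the series not given in the record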
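Detergent-containing arm of a paired screen for aggregation-based inhibition: 0.01% Triton X-100 present. Cruzain at 1.5 nM cleaved 2 uM Z-FR-AMC at pH 5.5 with 5 mM DTT; AMC fluorescence gain over 60 s measured activity.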
RE007 growth inh = less growth of the S. pombe RE007 Vpr strain. S. pombe RE007 Vpr strain, BacTiter-Glo ATP luminescence, 24 h; control for the full effect not named in the record. Potency, µM (doses to about 92.2 µM), without a hit: at the highest dose activity change, negative = less growth. 0.21% of 360,000 active; active = well fitted falling curve with a large enough effect; inconclusive = small, poorly fitted or top-dose-only effect; inactive = no such curve, though single readings can be large or run the other way;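 further: on the % scale 0 is the no-effect control and ±100 the full control effect; nearly all actives have a fitted effect of over 50% in size; the assay follows cell death caused by Vpr and the record does not say whether a fall means rescue or toxicity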
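Fission yeast strain RE007, carrying one chromosomally integrated HIV-1 vpr copy, was seeded at OD 0.01 in PMG+AL medium with 23 nL pinned compound. After 24 h at 30 °C and 99% humidity, viability was read by BacTiter-Glo luminescence.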
NS1 function inh = blocks influenza NS1 protein function. S. cerevisiae slowed by influenza A NS1, growth recovery by OD600. Potency, µM (top dose mostly 46.1 µM), without a hit: at the top dose activity, positive = more growth. 0.4% of 270,000 active; active means well fitted rising curve with a large enough effect; inconclusive means small, poorly fitted or top-dose-only effect; inactive means no such curve, though single readings can be large or run the other way; further: nearly all actives have a fitted effect of over 50% in size
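Growth recovery, yeast-based: influenza A NS1 expressed in S. cerevisiae causes slow growth, and suppressors are detected by OD600. The parent strain without NS1 is used as positive control.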
Active calls of the source: *; ? = inconclusive; nt = not tested or not shown; & = joins results of further samples; [ ] = dose if it differs, or a comment. Unless noted, the call rests on the fitted dose curve; in most records, active means well fitted curve in the direction sought with a large enough effect; inconclusive means small, poorly fitted or top-dose-only effect, or another doubt; inactive means no such curve, though single readings can be large; an effect the other way counts as inactive or inconclusive. Potency means the concentration at half of the fitted maximal effect. Rows are unselected; any-hit rate near 4.6%.

compound	Marburg entry inh	SARS PLP yeast	Cruzain inh noDet	Lassa entry inh	2A StopGo	Cruzain Triton	RE007 growth inh	NS1 function inh
Cc1cc2cc(C(c3nnnn3Cc3ccco3)N3CCCCC3)c(=O)[nH]c2cc1C (stereo not drawn)	-16%	-4%	-3%	-13%	nt	1.9%	3%	10%
O=C1/C(=C/c2ccc3c(c2)OCO3)N2CCC1CC2	13%	18%	-16%	3%	-19%	-2.0%	-5%	4%
Cc1ccc(-n2ncc(C#N)c2/N=C/N(C)C)cc1	0%	nt	3%	-13%	-19%	-2.3%	-15%	-17%
CCOC(=O)C1C(C)N=C2SCC(=O)N2C1c1cccc(Br)c1 (stereo not drawn)	0%	-9%	-23%	-2%	0%	-4.6%	-15%	?
COc1ccccc1C(=O)NC(=O)COC(=O)c1cnc(C)cn1	-3%	-2%	nt	1%[46.1 µM]	-23%	nt	-15%	nt
CCCCN1C=C(C(=O)OC)C(c2ccccc2Cl)C(C(=O)OC)=C1	nt	0%	nt	nt	-10%	nt	-10%	-12%
CCn1c(=O)cc(OCC(=O)N2CCN(Cc3ccc4c(c3)OCO4)CC2)c2ccccc21	-7%	2%	1%	4%	-2%	-3.1%	-11%[3.69 µM]	-16%
O=c1c2ccccc2nc(-c2ccco2)n1-c1ccc(Br)cc1	?	1%	nt	-10%	-24%	nt	24%	-1%
Cn1c(=O)c(C(=O)CSc2ccccc2)c(N)n(Cc2ccccc2)c1=O	?	3%	nt	12%	-6%	nt	7%	nt
Cc1nc2cccnc2n1-c1cccc(C(=O)NCCc2ccc(S(N)(=O)=O)cc2)c1	nt	nt	-1%	-1%[46.1 µM]	-21%	-2.3%	nt	nt
CN(C)C=Nc1ccc2nc3c(cc2c1)[nH]c1ccccc13	nt	-3%	nt	nt	-24%	nt	-21%	-5%
CCOC(=O)Nc1c(C)n(C)n(-c2ccccc2)c1=O	-13%	8%	-4%	-1%	-19%	2.4%	-7%	?
COCCCNC(=O)C(=O)NCCCOC(C)C	-5%	0%	-1%	3%	-11%	2.5%	0%	4%
CCOC(=O)N1CCN(C(=O)C2CCN(S(=O)(=O)c3c(C)cc(C)cc3C)CC2)CC1	11%	10%	?	?	-17%	0.8%	27%	-3%
CC(=O)N(c1ccc(C(F)(F)F)cc1)S(=O)(=O)c1ccc(N2C(=O)CCC2=O)cc1	5%[46.1 µM]	4%	nt	16%[46.1 µM]	-7%	nt	5%	4%
Cc1ccc(C(=O)NCCOc2cccc(C)c2)cc1	23%	22%	nt	-27%	27%	nt	7%	-7%
COc1ccc(C(CNC(=O)Cc2cc(OC)c(OC)c(OC)c2)N2CCCC2)cc1 (stereo not drawn)	-7%&-7%	-3%	-7%	?	15%	4.2%	10%	-2%
CC(=O)COc1ccccc1OC(=O)c1ccco1	12%	-6%	-12%	2%	-12%	2.3%	-11%	5%
COc1ccccc1C(=O)NCc1ccncc1	27%	-1%	-8%	16%[14.3 µM]	2%	-3.4%	-10%	?
Cc1ccc2cccc(OCc3ccc(F)cc3)c2n1	nt	-15%	nt	nt	-5%	nt	-11%	-20%
O=C(CCCC(=O)NN=Cc1ccccc1Cl)NN=Cc1ccccc1Cl	2%	nt	nt	5%	-13%	nt	29%	nt
CCCCN(C)C(=O)Cn1nc(-c2ccc(Cl)cc2)ccc1=O	-1%[46.1 µM]	-3%	nt	3%[46.1 µM]	-18%	nt	5%	4%
COc1cc(C2C(C(C)=O)=C(O)C(=O)N2CCN2CCOCC2)ccc1O (stereo not drawn)	0%	1%	-3%	17%	0%	3.7%	4%	22%
Cc1ccc(NC(=O)N2CCc3ccccc3C2)c(C)c1	?	9%	nt	8%[46.1 µM]	9%	nt	20%	-9%

5 structures out of the list, sorted by molecular weight, high to low.
compound	Marburg entry inh	SARS PLP yeast	Cruzain inh noDet	Lassa entry inh	2A StopGo	Cruzain Triton	RE007 growth inh	NS1 function inh
CC(=O)N(c1ccc(C(F)(F)F)cc1)S(=O)(=O)c1ccc(N2C(=O)CCC2=O)cc1	5%[46.1 µM]	4%	nt	16%[46.1 µM]	-7%	nt	5%	4%
Cn1c(=O)c(C(=O)CSc2ccccc2)c(N)n(Cc2ccccc2)c1=O	?	3%	nt	12%	-6%	nt	7%	nt
Cc1ccc(NC(=O)N2CCc3ccccc3C2)c(C)c1	?	9%	nt	8%[46.1 µM]	9%	nt	20%	-9%
Cc1ccc2cccc(OCc3ccc(F)cc3)c2n1	nt	-15%	nt	nt	-5%	nt	-11%	-20%
O=C1/C(=C/c2ccc3c(c2)OCO3)N2CCC1CC2	13%	18%	-16%	3%	-19%	-2.0%	-5%	4%

(list continues)
compound	Marburg entry inh	SARS PLP yeast	Cruzain inh noDet	Lassa entry inh	2A StopGo	Cruzain Triton	RE007 growth inh	NS1 function inh
O=C(CN1CC(c2ccccc2)CC1=O)Nc1ccc(F)cc1 (stereo not drawn)	nt	-15%	5%	nt	-8%	-2.3%	-10%	-2%
COc1ccc(N2CCN(C(c3cccs3)C(C)NC(=O)C(=O)N3CCCCC3)CC2)cc1 (stereo not drawn)	nt	7%	nt	nt	-14%	nt	-12%	-15%
COc1ccc(N2CCN(C(CNC(=O)c3ccco3)c3ccco3)CC2)cc1 (stereo not drawn)	1%	-2%	nt	?	2%	nt	5%	nt
Cc1nc(CC(C)C)cc(C(=O)N2CCCC(CNS(=O)(=O)c3cccs3)C2)n1 (stereo not drawn)	nt	0%	nt	nt	-19%	nt	2%	2%
CCCCCCc1nc2ccccc2c(=O)n1NC(=O)c1c(O)c2cccc3c2n(c1=O)CCC3	0%	-12%	-22%	nt	nt	2.0%	nt	0%
O=C(CSCC(=O)N1CCOCC1)Nc1nc(-c2ccccc2)cs1	?	1%	nt	?	16%	nt	5%	-9%
CN(C(=O)COc1ccccc1C(=O)NCc1ccccc1)C1CCS(=O)(=O)C1 (stereo not drawn)	4%	-1%	nt	24%	6%	nt	2%	nt
CC(C)(C)NC(=O)CN(Cc1cccs1)C(=O)CCN1CCc2ccccc21	-1%	-1%	nt	-12%	-15%	nt	-5%	9%
O=C(N1CCCCC1)N1CCN(S(=O)(=O)c2ccccc2)CC1	nt	11%	nt	nt	-14%	nt	-14%	7%
Cc1nc2sccn2c(=O)c1S(=O)(=O)N1CCN(c2cccc(Cl)c2)CC1	nt	-3%	nt	nt	-21%	nt	18%	7%
COc1ccc(OC)c(N(CC(=O)NCCSC2CCCCC2)S(=O)(=O)c2ccccc2)c1	18%	21%	nt	-18%	-18%	nt	-15%	13%
Cc1ccc(S(=O)(=O)NCCCNS(=O)(=O)c2ccc(C)cc2)cc1	-7%	-10%	nt	-18%	24%	nt	12%	nt

Other structures
molecule,Marburg entry inh,SARS PLP yeast,Cruzain inh noDet,Lassa entry inh,2A StopGo,Cruzain Triton,RE007 growth inh,NS1 function inh
COc1ccc(C(=O)N/N=C(\C)CC(=O)N2CCN(C=O)CC2)cc1,?,-31%,5%,?,6%,-2.1%,-14%,-2%
CCc1nc2ccccc2c(C(=O)OCc2nnc(-c3ccccc3)o2)c1C,-18%,10%,?,-8%,-6%,-11%,-6%,3%
CC(C)OCCCn1c(SCC(=O)c2ccccc2)nc2c(sc3ccccc32)c1=O,nt,nt,2%,29%[46.1 µM],2%,1.8%,nt,nt
COc1cc(/C=C2/C(=N)N3N=C(CC(=O)N4CCOCC4)SC3=NC2=O)ccc1OC(C)c1ccccc1 (stereo not drawn),nt,-6%,nt,nt,-22%,nt,21%,15%
CCC(=O)N1c2ccccc2CC1C(=O)NCCN1CCN(c2cccc(C)c2C)CC1 (stereo not drawn),nt,nt,-4%,22%[46.1 µM],-14%,-0.8%,nt,nt
O=C1NC2(Nc3ccccc31)C(=O)Nc1ccc(Br)cc12 (stereo not drawn),nt,-2%,nt,nt,-3%,nt,-13%,-4%
Cc1ccc(C(C)C)cc1S(=O)(=O)NC1CC(C)(C)NC(C)(C)C1,13µM*,-1%,nt,?,37%[activator],nt,-9%,9%
CC(=O)N1Cc2cc(N)ccc2Oc2ccccc21,-27%[46.1 µM],0%,nt,5%[46.1 µM],-11%,nt,3%,nt
Cc1ccc(/C=C/C(=O)OCC(=O)NCCN2C(=O)CSC2=O)cc1,24%[46.1 µM],-3%,nt,2%[46.1 µM],-12%,nt,45%,nt
CCNc1ccc(C(=O)OCC(=O)N2CCCC2)cc1[N+](=O)[O-],-3%[46.1 µM],-1%,nt,-4%,19%,nt,-7%,7%
COc1ccc(C(=O)Nc2ccc(-c3n[nH]c(=S)o3)cc2)cc1OC,nt,-2%,nt,nt,-8%,nt,-2%,3%
CCOC(=O)C1(CCOc2ccccc2)CCN(C(C)CSC)CC1 (stereo not drawn),nt,2%,nt,nt,-15%,nt,-1%,-2%
COC(=O)c1cc(C(=O)NCCN2C(=O)S/C(=C\c3cccs3)C2=O)cc([N+](=O)[O-])c1,15%,-2%,?,-3%,-11%,-7.8%,0%,8%
Cc1cccc(C(C)C)c1NC(=O)Cn1c(=O)oc2cc(S(=O)(=O)N3CCCC3)ccc21,10%[46.1 µM],nt,0%,1%[46.1 µM],-29%,-5.4%,nt,nt

Compound activity as filed in PubChem.
